Assay outcomes (PubChem BioAssay)
A1 apoptosis 2: blocks A1, raising caspase activity. 24,000 tested, under 10 active. caspase activation, % (no concentration beside the values). AID 2465. MEF A1-2A-BIM cells, caspase-Glo luminescence, 3 h; percent of clofoctol response, DMSO zero; in the data active = caspase activation above about 5.9%;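 also: wells of about 30 µL received 50 nL stock; the first replicate is given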
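Evaluation: Caspase-3/7 activity from luminescence increase | Assay system: A1-2A-BIM mouse embryonic fibroblasts | Quantity: 2500 MEF cells/well | Medium: RPMI-1640 plus 10% FBS | Detection: Caspase-Glo 3/7 luminescence, 1 h at room temperature | Dosing: 50 nL compound per well, pinned | Timing: Cells settled overnight, compound exposure 3 h at 37 °C, 5% CO2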
Numbers without * were called inactive. Only part of the results is shown; count on the stated rates, not on these rows.

SMILES	A1 apoptosis 2
C[C@H](CO)N1C[C@H](C)[C@@H](CN(C)S(C)(=O)=O)OCCCC[C@H](C)Oc2ccc(NC(=O)c3ccccc3)cc2C1=O	0.2
CNC[C@H]1Oc2c(NC(=O)c3ccncc3)cccc2C(=O)N([C@H](C)CO)C[C@@H]1C	-0.4
C[C@@H]1CN([C@H](C)CO)C(=O)c2cc(N(C)C)ccc2O[C@@H](C)CCCCO[C@@H]1CN(C)C(=O)CCCN(C)C	0.0
C[C@@H]1CCCCO[C@@H](CN(C)C(=O)c2ccccc2)[C@@H](C)CN([C@@H](C)CO)C(=O)c2cc(NC(=O)Nc3ccc(F)cc3)ccc2O1	0.5
CC(C)NC(=O)N(C)C[C@@H]1OCCCC[C@@H](C)Oc2ccc(NC(=O)c3ccccc3)cc2C(=O)N([C@H](C)CO)C[C@@H]1C	0.4
C[C@@H]1CCCCO[C@H](CN(C)C(=O)Nc2ccc(F)cc2)[C@@H](C)CN([C@@H](C)CO)C(=O)c2cc(NS(=O)(=O)c3cccs3)ccc2O1	-1.1
C[C@H]1CN([C@@H](C)CO)C(=O)c2cccc(NC(=O)C3CCOCC3)c2O[C@@H]1CN(C)C	-1.8
COc1ccc(CN(C)C[C@H]2OCCCC[C@@H](C)Oc3ccc(NC(=O)c4ccncc4)cc3C(=O)N([C@H](C)CO)C[C@@H]2C)cc1	-0.1
O=C(CCCCCCC(=O)Nc1ccccc1O)N/N=C/c1ccc(OCCO)cc1	-0.1
C[C@@H]1CN([C@H](C)CO)C(=O)c2cc(NS(=O)(=O)c3cccs3)ccc2O[C@@H](C)CCCCO[C@H]1CN(C)S(=O)(=O)c1ccccc1	-0.9
COc1ccc(S(=O)(=O)Nc2cccc3c2O[C@H](CN(C)C(=O)NC(C)C)[C@H](C)CN([C@@H](C)CO)C3=O)cc1	0.9
COc1ccc(NC(=O)Nc2ccc3c(c2)C(=O)N([C@H](C)CO)C[C@H](C)[C@H](CN(C)C(=O)Nc2ccc(F)cc2)OCCCC[C@H](C)O3)cc1	-0.2
Cc1noc(C)c1S(=O)(=O)N(C)C[C@H]1Oc2c(NC(=O)C3CCOCC3)cccc2C(=O)N([C@H](C)CO)C[C@H]1C	0.3
COC(=O)CCCCCCC(=O)Nc1ccc(C2OC(CSc3nc(-c4ccccc4)c(-c4ccccc4)o3)CC(c3ccc([N+](=O)[O-])cc3)O2)cc1 (stereo not drawn)	0.7
C=CC[C@]12N=C(c3ccc(OCCCO)cc3)O[C@H]1c1ccccc1CN(CCS(=O)(=O)c1ccccc1)C2=O	-1.1
CC(C)NC(=O)Nc1cccc2c1O[C@@H](CN(C)Cc1ccc(C(=O)O)cc1)[C@H](C)CN([C@H](C)CO)C2=O	0.3
C=CC[C@]1(C(=O)N(C)C)COC(c2ccc(OCCCO)cc2)=N1	0.0
C[C@@H]1CN([C@@H](C)CO)C(=O)c2cc(NC(=O)CCCCCC(=O)Nc3ccccc3N)ccc2O[C@H]1CN(C)S(=O)(=O)c1cccs1	-0.5
C[C@@H]1CCCCO[C@@H](CN(C)Cc2ccncc2)[C@H](C)CN([C@@H](C)CO)C(=O)c2cc(NC(=O)CCC(F)(F)F)ccc2O1	0.0
C[C@H](CO)N1C[C@H](C)[C@H](CN(C)C(=O)Nc2cccc3ccccc23)Oc2ccc(NS(=O)(=O)c3ccc(Cl)cc3)cc2C1=O	-0.1
Cc1noc(C)c1NC(=O)N(C)C[C@@H]1Oc2c(NC(=O)Nc3ccc(C(F)(F)F)cc3)cccc2C(=O)N([C@H](C)CO)C[C@@H]1C	0.4
C[C@H]1CN([C@@H](C)CO)C(=O)c2cccc(NC(=O)Nc3ccc4c(c3)OCO4)c2O[C@H]1CN(C)Cc1ccccc1	-1.4
COc1ccc(S(=O)(=O)N(C)C[C@@H]2Oc3c(NC(=O)c4ccncc4)cccc3C(=O)N([C@H](C)CO)C[C@H]2C)cc1	0.0
C[C@@H]1CN([C@@H](C)CO)C(=O)CCCn2cc(nn2)CO[C@@H]1CN(C)S(=O)(=O)c1ccc(Cl)cc1	0.1
CC(C)NC(=O)Nc1cccc2c1O[C@@H](CN(C)S(=O)(=O)c1ccc(Cl)cc1)[C@H](C)CN([C@H](C)CO)C2=O	0.8
Next section:
SMILES	A1 apoptosis 2
COc1ccc(S(=O)(=O)Nc2ccc3c(c2)C(=O)N([C@@H](C)CO)C[C@H](C)[C@@H](CN(C)S(=O)(=O)c2ccc(C)cc2)OCCCC[C@H](C)O3)cc1	-0.1
C[C@@H]1CN([C@@H](C)CO)C(=O)c2cc(NC(=O)C3CCCCC3)ccc2O[C@@H]1CN(C)Cc1ccc(C(F)(F)F)cc1	-0.1
C[C@@H]1CN([C@H](C)CO)C(=O)c2cccc(NC(=O)Nc3ccc(F)cc3)c2O[C@H]1CN(C)Cc1ccc(-c2ccccc2)cc1	0.5
Cc1noc(C)c1S(=O)(=O)Nc1ccc2c(c1)C(=O)N([C@H](C)CO)C[C@@H](C)[C@H](CN(C)C(=O)c1ccncc1)OCCCC[C@@H](C)O2	-0.1
C[C@@H]1CCCCO[C@@H](CN(C)C(=O)CCC(F)(F)F)[C@@H](C)CN([C@@H](C)CO)C(=O)c2cc(NC(=O)CCC(F)(F)F)ccc2O1	-0.9
C[C@@H]1CN([C@@H](C)CO)C(=O)c2cc(NC(=O)NC3CCCCC3)ccc2O[C@@H](C)CCCCO[C@@H]1CN(C)CC1CCCCC1	0.4
C[C@@H]1CN([C@H](C)CO)C(=O)c2cc(NC(=O)c3ccncc3)ccc2O[C@H]1CN(C)S(=O)(=O)c1ccccc1	-0.7
C[C@@H]1CN([C@@H](C)CO)C(=O)c2cc(NS(=O)(=O)c3cccs3)ccc2O[C@@H](C)CCCCO[C@@H]1CN(C)Cc1ccc2c(c1)OCO2	-0.8
C[C@@H]1CN([C@H](C)CO)C(=O)c2cccc(NC(=O)c3ccno3)c2O[C@H]1CN(C)S(=O)(=O)c1cccs1	-0.4
C[C@@H]1CCCCO[C@H](CN(C)Cc2ccccc2)[C@@H](C)CN([C@@H](C)CO)C(=O)c2cc(NC(=O)CCCN(C)C)ccc2O1	0.2
C[C@H]1CCCCO[C@H](CN(C)S(=O)(=O)c2cn(C)cn2)[C@@H](C)CN([C@@H](C)CO)C(=O)c2cc(NC(=O)Nc3cccc4ccccc34)ccc2O1	0.3
C[C@@H]1CN([C@@H](C)CO)C(=O)c2cc(NC(=O)NC3CCCCC3)ccc2O[C@H]1CN(C)Cc1ccc(-c2ccccc2)cc1	-0.5
C[C@@H]1CN([C@@H](C)CO)C(=O)Cc2cc(NS(=O)(=O)c3cccs3)ccc2O[C@H]1CN(C)C(=O)Nc1ccc2c(c1)OCO2	-0.4
Cc1noc(C)c1S(=O)(=O)N(C)C[C@H]1OCCCC[C@H](C)Oc2ccc(NC(=O)Nc3ccc(F)cc3)cc2C(=O)N([C@@H](C)CO)C[C@@H]1C	0.6
Cc1noc(C)c1NC(=O)Nc1ccc2c(c1)C(=O)N([C@@H](C)CO)C[C@@H](C)[C@@H](CN(C)S(=O)(=O)c1c(C)noc1C)O2	0.8
C[C@H]1CN([C@@H](C)CO)C(=O)Cc2cc(NC(=O)CCN3CCOCC3)ccc2O[C@H]1CN(C)S(=O)(=O)c1cccs1	-0.9
C[C@@H]1CN([C@H](C)CO)C(=O)c2cc(NC(=O)CCC(F)(F)F)ccc2O[C@@H](C)CCCCO[C@@H]1CN(C)Cc1ccncc1	-0.6
C[C@@H]1CN([C@H](C)CO)C(=O)c2cccc(NC(=O)C3CCOCC3)c2O[C@@H]1CN(C)C(=O)Nc1ccccc1	-0.4
COc1ccc(S(=O)(=O)Nc2cccc3c2O[C@H](CN(C)S(=O)(=O)c2cccs2)[C@@H](C)CN([C@H](C)CO)C3=O)cc1	-1.1
C[C@H](CO)N1C[C@H](C)[C@H](CN(C)S(=O)(=O)c2ccc(F)cc2)Oc2ccc(NS(=O)(=O)c3ccc(F)cc3)cc2C1=O	0.6
COc1ccc(S(=O)(=O)Nc2cccc3c2O[C@@H](CN(C)Cc2ccc(Oc4ccccc4)cc2)[C@H](C)CN([C@@H](C)CO)C3=O)cc1	-0.1
COc1ccc(CN(C)C[C@H]2OCCCC[C@@H](C)Oc3ccc(NC(=O)c4ccccc4)cc3C(=O)N([C@@H](C)CO)C[C@H]2C)cc1	-0.4
COc1ccc(NC(=O)N(C)C[C@@H]2OCCCC[C@H](C)Oc3ccc(NS(=O)(=O)c4ccc(OC)cc4)cc3C(=O)N([C@H](C)CO)C[C@H]2C)cc1	1.6
Cc1cc(C(=O)Nc2cccc3c2O[C@H](CN(C)S(=O)(=O)c2ccccc2)[C@H](C)CN([C@@H](C)CO)C3=O)n(C)n1	2.4
O=C(CCCCCCC(=O)Nc1ccccc1O)N/N=C/c1cccs1	0.2
Additional results.
SMILES	A1 apoptosis 2
C[C@H](CO)N1C[C@H](C)[C@H](CN(C)Cc2ccc(Oc3ccccc3)cc2)Oc2ccc(N(C)C)cc2C1=O	-0.2
C[C@@H]1CN([C@H](C)CO)C(=O)Cc2cc(N(C)C)ccc2O[C@@H]1CN(C)CC1CC1	1.0
C[C@@H]1CCCCO[C@H](CN(C)S(=O)(=O)c2cn(C)cn2)[C@@H](C)CN([C@H](C)CO)C(=O)c2cc(NC(=O)CCCN(C)C)ccc2O1	0.1
Cc1noc(C)c1NC(=O)Nc1ccc2c(c1)C(=O)N([C@@H](C)CO)C[C@H](C)[C@H](CN(C)C(=O)Nc1c(C)noc1C)O2	0.0
C[C@H](CO)N1C[C@H](C)[C@@H](CN(C)S(=O)(=O)c2cccs2)Oc2c(NC(=O)c3cnccn3)cccc2C1=O	0.4
C[C@H](CO)N1C[C@H](C)[C@H](CN(C)S(C)(=O)=O)Oc2ccc(NC(=O)C3CC3)cc2CC1=O	-0.6
CNC[C@H]1OCCCC[C@@H](C)Oc2ccc(NC(=O)Nc3ccc(C(F)(F)F)cc3)cc2C(=O)N([C@@H](C)CO)C[C@H]1C	0.7
CNC[C@H]1Oc2c(NS(=O)(=O)c3ccc(F)cc3)cccc2C(=O)N([C@H](C)CO)C[C@H]1C	-0.4
C[C@H]1CN([C@@H](C)CO)C(=O)Cc2cc(NS(=O)(=O)c3ccccc3)ccc2O[C@@H]1CN(C)S(=O)(=O)c1cccs1	0.2
CNC[C@@H]1Oc2ccc(NC(=O)CCN3CCOCC3)cc2C(=O)N([C@H](C)CO)C[C@@H]1C	0.4
C[C@@H]1CN([C@H](C)CO)C(=O)Cc2cc(NC(=O)Cn3cnnn3)ccc2O[C@H]1CN(C)Cc1ccc(C(=O)Nc2ccccc2N)cc1	-0.7
COc1ccc(NC(=O)Nc2ccc3c(c2)C(=O)N([C@@H](C)CO)C[C@@H](C)[C@@H](CN(C)CC2CCCCC2)OCCCC[C@@H](C)O3)cc1	-1.5
Cc1noc(C)c1S(=O)(=O)N(C)C[C@H]1Oc2ccc(NS(=O)(=O)c3ccc(Cl)cc3)cc2CC(=O)N([C@H](C)CO)C[C@H]1C	-1.8
COCC1=C([C@H](O)c2ccccc2)[C@H](CO)[C@@H]2C(=O)N(C)C(=O)[C@@H]2C1	0.2
C[C@@H]1CCCCO[C@H](CN(C)C(=O)Nc2ccccc2)[C@H](C)CN([C@@H](C)CO)C(=O)c2cc(NS(=O)(=O)c3ccc(F)cc3)ccc2O1	-0.6
O=C(C1=C[C@@H](c2ccc3c(c2)OCO3)C[C@@H](OCCCCO)O1)N1CCN(Cc2ccc3c(c2)OCO3)CC1	0.1
Cc1noc(C)c1S(=O)(=O)Nc1ccc2c(c1)C(=O)N([C@@H](C)CO)C[C@@H](C)[C@@H](CN(C)S(=O)(=O)c1ccc(Cl)cc1)OCCCC[C@@H](C)O2	-1.4
CC(C)NC(=O)Nc1ccc2c(c1)C(=O)N([C@@H](C)CO)C[C@H](C)[C@@H](CN(C)C(=O)Nc1ccc3c(c1)OCO3)OCCCC[C@@H](C)O2	0.1
Cc1ccc(S(=O)(=O)Nc2ccc3c(c2)C(=O)N([C@@H](C)CO)C[C@@H](C)[C@H](CN(C)Cc2ccccc2)OCCCC[C@H](C)O3)cc1	-0.3
C[C@@H]1CN([C@H](C)CO)C(=O)c2cccc(NS(C)(=O)=O)c2O[C@@H]1CN(C)Cc1ccncc1	-1.0
C[C@@H]1CN([C@@H](C)CO)C(=O)c2cc(NS(C)(=O)=O)ccc2O[C@@H]1CN(C)S(=O)(=O)c1cn(C)cn1	0.8

Filtered by structure, the entries above containing an aryl methoxy group.
SMILES	A1 apoptosis 2
COc1ccc(CN(C)C[C@H]2OCCCC[C@@H](C)Oc3ccc(NC(=O)c4ccncc4)cc3C(=O)N([C@H](C)CO)C[C@@H]2C)cc1	-0.1
COc1ccc(S(=O)(=O)Nc2cccc3c2O[C@H](CN(C)C(=O)NC(C)C)[C@H](C)CN([C@@H](C)CO)C3=O)cc1	0.9
COc1ccc(NC(=O)Nc2ccc3c(c2)C(=O)N([C@H](C)CO)C[C@H](C)[C@H](CN(C)C(=O)Nc2ccc(F)cc2)OCCCC[C@H](C)O3)cc1	-0.2
COc1ccc(S(=O)(=O)N(C)C[C@@H]2Oc3c(NC(=O)c4ccncc4)cccc3C(=O)N([C@H](C)CO)C[C@H]2C)cc1	0.0
COc1ccc(S(=O)(=O)Nc2ccc3c(c2)C(=O)N([C@@H](C)CO)C[C@H](C)[C@@H](CN(C)S(=O)(=O)c2ccc(C)cc2)OCCCC[C@H](C)O3)cc1	-0.1
COc1ccc(S(=O)(=O)Nc2cccc3c2O[C@H](CN(C)S(=O)(=O)c2cccs2)[C@@H](C)CN([C@H](C)CO)C3=O)cc1	-1.1
COc1ccc(S(=O)(=O)Nc2cccc3c2O[C@@H](CN(C)Cc2ccc(Oc4ccccc4)cc2)[C@H](C)CN([C@@H](C)CO)C3=O)cc1	-0.1
COc1ccc(CN(C)C[C@H]2OCCCC[C@@H](C)Oc3ccc(NC(=O)c4ccccc4)cc3C(=O)N([C@@H](C)CO)C[C@H]2C)cc1	-0.4
COc1ccc(NC(=O)N(C)C[C@@H]2OCCCC[C@H](C)Oc3ccc(NS(=O)(=O)c4ccc(OC)cc4)cc3C(=O)N([C@H](C)CO)C[C@H]2C)cc1	1.6
COc1ccc(NC(=O)Nc2ccc3c(c2)C(=O)N([C@@H](C)CO)C[C@@H](C)[C@@H](CN(C)CC2CCCCC2)OCCCC[C@@H](C)O3)cc1	-1.5
